PrP 5UTR inh: inhibition of PrP 5' UTR reporter expression; cell-based PrP 5' UTR mRNA reporter, plate reader; inhibition, % (test concentration not listed); actives 0.35% (n = 340,000); AID 488862, 2010;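 active = every replicate at 50% or more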;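 also: 0 = median of the neutral control wells; tested in H4 reporter cells; numbers are from one replicate; inactives centre near -14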
Bead autofluor: flagged as autofluorescent in microsphere protease counterscreen; actives 3.1% (n = 360,000); fluorescence intensity (test concentration not listed); compound autofluorescence counterscreen, microsphere flow cytometry; active compounds read high; AID 624483;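 active = at least 3 SD above the mean of all compounds, about 16000 in these data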;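 also: 100 nL of 1 mM stock went into each well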
* hit, by the source's call.

SMILES	PrP 5UTR inh	Bead autofluor
CCN1C[C@@H]2[C@@H]3C(=O)N(C)C(=O)[C@@H]3[C@](CC)(C1=O)N2C(=O)c1ccc(Cl)cc1	-27	3719
CC(C)(C)[C@H]1COC(=O)[C@@H](Cc2ccc(F)cc2)CC/C=C/C[C@@H](CC(=O)N[C@@H](CO)Cc2ccccc2)C(=O)N1	-34	3286
CC1(C)CC[C@]2(C(=O)O[C@@H]3O[C@H](CO)[C@@H](O)[C@H](O)[C@H]3O)CC[C@]3(C)C(=CCC4[C@@]5(C)CC[C@H](O[C@@H]6O[C@H](C(=O)O)[C@@H](O[C@H]7OC[C@@H](O)[C@@H](O)[C@@H]7O)[C@H](O)[C@H]6O)C(C)(C)C5CC[C@]43C)[C@@H]2C1 (stereo partly specified)	-16	3402
COC(=O)C1=C(c2ccc(OC)c(OC)c2)C[C@@H]2CC[C@H]1N2C(=O)NCc1cc(C)oc1C(F)(F)F	-7	4214
O=S(=O)(O)c1cc(O)ccc1O	-8	5612
COc1cc2c(cc1OC)C(Cc1cc(OC)c(OC)cc1[N+](=O)[O-])=NCC2	43	2979
NC(=O)C1CCN(c2nc(-c3cccs3)cs2)CC1	-53	3944
Cc1snc(SCC(=O)c2ccc([N+](=O)[O-])cc2)c1C#N	-20	4668
O=S1(=O)c2c(F)cccc2OC(COCc2ccccc2)CN1C1CCCC1 (stereo unspecified)	-7	3300
CC1=C(C(=O)OCc2ccccc2)C(c2cccc3ccccc23)NC(=O)N1CCCC(=O)O (stereo unspecified)	-10	3454
Cc1ccc(NC(=O)c2ncn(CCCN(CCCn3cnc(C(=O)Nc4ccc(C)c(C)c4)n3)Cc3ccc4[nH]ccc4c3)n2)cc1C	-17	3584
O=c1cc(C=NNc2ccc([N+](=O)[O-])cc2)[nH]c(=O)[nH]1	-17	3940
COc1ccc(-n2ncc3c(N4CCCc5ccccc54)ncnc32)cc1	-35	11282
COC(=O)C1=C(C(=O)OC)[C@]2([C@@H]3CCCCN[C@@H](Cc4ccccc4)C(=O)N3Cc3ccccc3)C=C[C@H]1O2	-12	4001
COC(=O)[C@]1(CC(C)C)N[C@H](c2ccc(-c3ccc(C(C)=O)cc3)cc2)[C@@H]2C(=O)N(C)C(=O)[C@@H]21	-6	3776
O=c1[nH]nnc2c1cnn2-c1ccccc1	-15	4466
CCOC(=O)[C@H]1[C@H]2COc3cc(OC)ccc3[C@@H]2N2C(=O)N(c3cccc(F)c3)C(=O)[C@@]12C	-22	3803
COc1cccc2c1C1(O)C2CCCCCCCCCC12OCCCO2 (stereo unspecified)	-11	4433
CC(C)=CCc1c2c(c3occ(-c4ccc(O)c(O)c4)c(=O)c3c1O)C=CC(C)(C)O2	0	4628
O=C(O)C1=CC[C@@H](c2ccc(Cl)cc2)N(S(=O)(=O)c2ccc(Cl)cc2)[C@H]1c1cccc(Cl)c1	-2	2923
C[C@@H](NC(=O)c1nc[nH]c1C(=O)N1CCN(C(=O)OC(C)(C)C)CC1)c1ccccc1	4	4013
Cc1noc(C)c1NC(=O)Nc1ccc2c(c1)C(=O)N([C@H](C)CO)C[C@H](C)[C@H](CN(C)C)O2	-21	3949
c1ccc(-c2c[nH]c(-c3ccccc3)c2)cc1	31	3870
O=[N+]([O-])c1nc2ccccc2[nH]1	-10	4303
N#Cc1c(-c2ccc(Cl)cc2)n(O)c2ccccc12	-34	4245
O=C1CC(=O)N(Cc2ccccc2)C(=O)N1	-25	4009
O=c1[nH]c(-c2ccccc2)nc(CN2CCCCC2)c1O	-3	3719
Cc1ccccc1Oc1ccc2c(c1)[C@@H]1C[C@H](N(C)C(=O)NC3CCCCC3)[C@H]([C@H](C)O)C(=O)N1CC2	-16	3617
Cc1cccc(NC2=C/C(=N/S(=O)(=O)c3cccs3)c3ccccc3C2=O)c1	-65	2452
C[C@@H]1CN([C@@H](C)CO)C(=O)c2cc(NC(=O)Nc3ccc4c(c3)OCO4)ccc2O[C@H]1CN(C)S(=O)(=O)c1cn(C)cn1	-15	3577
C[C@H](CO)N1C[C@H](C)[C@@H](CN(C)Cc2ccc(-c3ccccc3)cc2)Oc2c(NC(=O)Nc3ccc4c(c3)OCO4)cccc2C1=O	-7	3908
C[C@H]1COC(=O)[C@H](CC(=O)OC(C)(C)C)C/C=C\C[C@H](CC(=O)N(CCO)Cc2ccccc2)C(=O)N1	-40	4483
COc1cc2c3nnc(-c4ccc(F)cc4)c-3cn(Cc3ccccc3F)c2cc1OC	-4	7196
COc1ccc2c(c1O)-c1c(OC)c(OC)cc3c1[C@H](C2)N(C)CC3	46	5456
O=C(O)C1CCCC[C@H]1C(=O)Nc1ncc([N+](=O)[O-])s1 (stereo partly specified)	-8	2852
CSCCC1NC(=O)C(C(C)=NNC(N)=O)=C1O (stereo unspecified)	-23	4071
CC(=O)[C@H]1CC[C@H]2[C@@H]3CC=C4C[C@@H](OS(=O)(=O)O)CC[C@]4(C)[C@H]3CC[C@]12C	-8	5589
COc1cc(CCCN2CCNC[C@H]2Cc2cccc3ccccc23)cc(OC)c1OC	-18	5166
O=C(c1ccccc1)c1ccc(N2CCOCC2)cc1	-116	3573
C[C@H](CO)N1C[C@H](C)[C@@H](CN(C)CC2CCCCC2)Oc2c(NS(=O)(=O)c3ccc(F)cc3)cccc2C1=O	-18	3567
CC(C)(C)OC(=O)N(CCc1ccccc1)Cc1ccccc1OCc1cccc(NC(=O)C2CCCC2)c1	29	3595
Cc1ccc(-c2noc(CC(=O)c3ccc([N+](=O)[O-])cc3)n2)cc1	-18	2730
Cc1ccc(NC(=O)c2ncn(CCCNCCCN3CCCC3=O)n2)cc1C	-36	3582
CCCCN1C(=O)C(C(=O)OCC)CC2=C1CCCC2=O (stereo unspecified)	-19	3997
O=[N+]([O-])c1oc2ccc3ccccc3c2c1CCO	-5	3614
COc1ccccc1NC(=O)C(C)OC(=O)C1CCN(S(=O)(=O)c2ccccc2C(F)(F)F)CC1 (stereo unspecified)	-16	3718
Nc1cc2c(cc1Cl)-c1ccccc1C2=NO	-29	3160
COc1cc(C=NO)nc(-c2ccccn2)c1	44	3459
Cc1ccc(S(=O)(=O)Nc2cccc3c2O[C@@H](CN(C)C(=O)Nc2ccc4c(c2)OCO4)[C@H](C)CN([C@@H](C)CO)C3=O)cc1	-8	3035
Cc1cccc2nc(Cn3c(=O)n(CCC(=O)NCc4ccco4)c(=O)c4ccccc43)cc(=O)n12	12	3373
O=C1C=C(c2ccccc2)C(c2ccccc2)C1O (stereo unspecified)	-9	3737
O=C1CCC[C@@H]2Cc3nc4ccc(Cl)cc4cc3[C@@H]3CCN1[C@H]23	-20	3831
CN(CCc1ccccc1)C(=O)c1ccc(NC(=O)Cc2ccc(NC(=O)C3CCN(C(=O)c4ccccc4)CC3)cc2)cc1	-24	2714
CCCN1CCN(C(=O)Cn2nc(C)n3c(cc4c(OC)cccc43)c2=O)CC1	-15	5811
CC(C)C(=O)Nc1cccc(N2CCN(CCCN3C(=O)C4CCCCN4C3=O)CC2)c1 (stereo unspecified)	-25	3048
N#Cc1c(Nc2ccccc2)[n+]([O-])c2ccc(Cl)cc2[n+]1[O-]	12	3683
O=C1/C(=C/c2cccnc2)SC(=S)N1Cc1ccco1	-13	3808
O=C(NCCOC(=O)c1ccccc1)c1ccccc1	-12	4713
COC(=O)[C@@]12CCCN1[C@H](c1ccc(-c3ccc(Cl)c(Cl)c3)c(OC)c1)[C@H]1C(=O)N(C)C(=O)[C@H]12	-9	3506
COC(=O)C1=C(c2cccc(OCc3ccccc3)c2)C[C@@H]2CC[C@H]1N2C(=O)NCc1ccc(Cl)cc1	-6	3743

Continuation:
SMILES	PrP 5UTR inh	Bead autofluor
O=S(=O)(c1ccc(NC(=S)NN=Cc2ccccc2O)cc1)N1CCCCC1	-6	3057
COc1ccc2c(c1)[C@H]1[C@H](CO2)[C@H](c2ccccc2)[C@]2(C)C(=O)N[C@H](C)C(=O)N12	-19	3935
O=c1c2c([N+](=O)[O-])cc([N+](=O)[O-])cc2sn1-c1ccc(Br)cc1	-12	2407
COC(=O)C1=C(c2c(C)noc2C)C[C@@H]2CC[C@H]1N2C(=O)NCCOc1ccccc1Cl	-11	3977
CC(C)(C)OC(=O)C[C@@H]1C/C=C\C[C@@H](CC(=O)NCCO)C(=O)NC[C@@H](c2ccccc2)OC1=O	-21	4053
O=C(N[C@H]1C/C=C\C[C@@H](CC(=O)N(CCO)Cc2ccccc2)C(=O)N2CCC[C@@H]2COC1=O)OCC1c2ccccc2-c2ccccc21	-11	3964
C[C@@H](NC(=O)c1[nH]cnc1C(=O)Nc1nccs1)c1ccccc1	-2	3421
C[C@H]1O[C@@H](O[C@H]2CC[C@@]3(C)C(CC[C@]4(C)C3C=C[C@]35OC[C@@]6(CCC(C)(C)C[C@H]63)[C@@H](O)C[C@]54C)[C@]2(C)CO)[C@H](O)[C@@H](O[C@@H]2O[C@H](CO)[C@@H](O)[C@H](O)[C@H]2O)[C@H]1O (stereo partly specified)	17	3266
O=C(Nc1ccccc1)N1Cc2ccccc2-n2nncc2C1	-24	2931
COC(=O)C(C)(C)c1cccnc1C#N	-8	3850
C#CCOCCOCCOCCNc1nc(N2CCN(C(=O)Cn3cc(CC(C)O)nn3)CC2)nc(N2CCN(C(=O)[C@H](C)n3cc(CCC(=O)O)nn3)CC2)n1 (stereo partly specified)	-14	4312
CC(CNCCCn1cnc2c(OCc3ccccc3)ncnc21)c1ccccc1 (stereo unspecified)	-21	4244
CCOc1ccccc1C(=O)N/N=C/c1ccoc1	-19	6171
C[C@H](CO)N1C[C@H](C)[C@@H](CN(C)Cc2ccncc2)Oc2c(NC(=O)C3CC3)cccc2C1=O	-16	3851
Cc1cc2c(=O)n(C)c(SCC(=O)NCC3CCCO3)nc2s1 (stereo unspecified)	-14	3580
COc1cc2sc(-c3ccccc3OC)c(-c3ccc(OCCN4CCCCC4)cc3)c2cc1OC	-10	4187
O=C1CCC[C@@H]2C[C@@]3(C[C@@H]4CCN1[C@H]24)Nc1cc(Cl)ccc1NC3=NC1CCCCC1	-6	3974
CC(C)C[C@H]1CNC(=S)N1CC1CCN(CCCC2CCCC2)CC1	3	3894
C[C@@H]1CN([C@H](C)CO)C(=O)c2cc(NC(=O)Nc3ccc(C(F)(F)F)cc3)ccc2O[C@H]1CN(C)C(=O)Nc1ccc(F)cc1	-24	3990
COc1cc2sc(-c3ccc(S(C)(=O)=O)cc3)c(C#CCO)c2cc1OC	8	2849
CCCCN1CC(COCc2ccccc2)Oc2cccc(Oc3ccc(C)cc3)c2S1(=O)=O (stereo unspecified)	-27	3072
COc1ccc(NC(=O)N(C)C[C@H]2Oc3ccc(NC(=O)CCN4CCOCC4)cc3C(=O)N([C@@H](C)CO)C[C@H]2C)cc1	-8	3524
O=C(N/N=C/c1cc(Cl)ccc1O)c1ccc(Br)cc1	16	2389
COc1ccc(-c2cc(C(=O)N/N=C/c3cccnc3)c3ccccc3n2)cc1	-15	4990
C[C@@H]1CN(S(=O)C(C)(C)C)[C@H](CCO)/C1=C\CCO (stereo partly specified)	-14	3446
O=C1NC[C@H](c2ccccc2)OC(=O)[C@H](Cc2ccc(F)cc2)C/C=C\C[C@@H]1CC(=O)N(CCO)Cc1ccccc1	-10	2888
CSC(=S)NN=C(C)c1cccc(C)n1	11	3935
CCCCN1CC(=O)N2[C@H]3c4ccc(OC)cc4OC[C@@H]3[C@H](C(=O)OCC)[C@]2(C)C1=O	-4	3970
Nc1nc(=O)n(C2CCCCO2)cc1Br (stereo unspecified)	-15	4059
O=C(c1cc(Cl)cc(Cl)c1)N1CCC2CC1c1cc(-c3ccc4c(c3)OCO4)ccc12 (stereo unspecified)	-18	3466

A draw from above in order of SMILES length, falling:
SMILES	PrP 5UTR inh	Bead autofluor
C[C@@H]1CN([C@H](C)CO)C(=O)c2cc(NC(=O)Nc3ccc(C(F)(F)F)cc3)ccc2O[C@H]1CN(C)C(=O)Nc1ccc(F)cc1	-24	3990
COc1ccc(NC(=O)N(C)C[C@H]2Oc3ccc(NC(=O)CCN4CCOCC4)cc3C(=O)N([C@@H](C)CO)C[C@H]2C)cc1	-8	3524
O=C1NC[C@H](c2ccccc2)OC(=O)[C@H](Cc2ccc(F)cc2)C/C=C\C[C@@H]1CC(=O)N(CCO)Cc1ccccc1	-10	2888
CCCCN1CC(=O)N2[C@H]3c4ccc(OC)cc4OC[C@@H]3[C@H](C(=O)OCC)[C@]2(C)C1=O	-4	3970
O=C(c1cc(Cl)cc(Cl)c1)N1CCC2CC1c1cc(-c3ccc4c(c3)OCO4)ccc12 (stereo unspecified)	-18	3466
COc1cc2sc(-c3ccccc3OC)c(-c3ccc(OCCN4CCCCC4)cc3)c2cc1OC	-10	4187
CCCCN1CC(COCc2ccccc2)Oc2cccc(Oc3ccc(C)cc3)c2S1(=O)=O (stereo unspecified)	-27	3072
COc1ccc(-c2cc(C(=O)N/N=C/c3cccnc3)c3ccccc3n2)cc1	-15	4990
COc1cc2sc(-c3ccc(S(C)(=O)=O)cc3)c(C#CCO)c2cc1OC	8	2849
C[C@@H]1CN(S(=O)C(C)(C)C)[C@H](CCO)/C1=C\CCO (stereo partly specified)	-14	3446
CC(C)C[C@H]1CNC(=S)N1CC1CCN(CCCC2CCCC2)CC1	3	3894
CSC(=S)NN=C(C)c1cccc(C)n1	11	3935

The list continues.
SMILES	PrP 5UTR inh	Bead autofluor
O=C(O)/C=C\C(=O)Nc1ccccc1C(=O)N1CCC(O)(c2ccc(Cl)cc2)CC1	-6	3188
CCOC(=O)[C@H]1[C@H]2COc3ccc(OC)cc3[C@@H]2N2C(=O)CN(CC3CCCO3)C(=O)[C@@]12C (stereo partly specified)	-20	4158
OCC[C@H]1C[C@H](O)[C@@H](O)[C@]2(Cc3ccccc3O2)O1	-11	2926
CCC(CCc1ccccn1)C(=O)c1ccccc1 (stereo unspecified)	-15	4296

Screening results: PubChem, several laboratories

This is a subset. The share of hits here may be higher or lower than overall.
